CSC inhib: cancer stem cell inhibition; AID 2717; hit rate 1.1% among 300,000; cancer stem cell-like cells viability, luminescence; inhibition, % at 7.5 µM;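 active = mean at 75% or more and at least half the replicates too; inconclusive = mean and replicates disagree; tested in HMLE shEcad cells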;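 also: 0% = median of negative and 100% = median of positive control wells; the first replicate is given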
Yeast UUG start: alters start codon recognition fidelity in yeast | S. cerevisiae UUG-firefly luciferase reporter, luminescence/redox ratio | hit rate 0.13% among 350,000 | activity score, % at 18.7 µM | AID 602363;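 active = replicate mean at a twofold rise or more, about +100% in these data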;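 also: firefly luciferase made from a UUG start codon reports start codon fidelity; reporter light over untreated wells divided by growth signal over untreated wells; some hits fall short of that in this replicate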
Rce1 inhib: inhibitors of yeast Ras-converting enzyme; yeast membranes, quenched prenylated peptide cleavage fluorescence; calls only; hit rate 0.27% among 290,000;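 active = fall in fluorescence gain of 50% or more versus controls, with final raw signal at or below 3038400; inconclusive = same 50% fall but final raw signal above 3038400; inactive = fall in fluorescence gain under 50%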;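 also: plate controls were neutral control wells for no effect and wells lacking membranes for full effect; tested at 10 µM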
Target sequence (Q03530 whole entry, looked up): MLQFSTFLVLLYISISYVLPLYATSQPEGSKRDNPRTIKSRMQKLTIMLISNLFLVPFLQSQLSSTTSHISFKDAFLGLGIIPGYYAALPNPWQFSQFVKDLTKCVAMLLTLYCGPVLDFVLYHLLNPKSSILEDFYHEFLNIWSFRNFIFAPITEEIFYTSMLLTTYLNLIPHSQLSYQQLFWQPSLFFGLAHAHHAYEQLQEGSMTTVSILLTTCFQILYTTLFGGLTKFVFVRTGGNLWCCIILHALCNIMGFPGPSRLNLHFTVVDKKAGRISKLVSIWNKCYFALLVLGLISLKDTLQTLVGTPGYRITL
PABP FP inh: blocks human PABP binding to poly(A) RNA; P11940; fluorescence polarization; inhibition, % at 35 µM; hit rate 1% among 290,000;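 active = 50% or more with normal probe brightness, or confirmed in later tests; inconclusive = above 50% with abnormal brightness, or retests that disagree; inactive = below 50% or failed in later tests; about a fifth of its hits are not listed in these tables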;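 also: calls also rest on retests at 20 µM and on dose response follow-up; controls were probe without protein and protein plus probe with vehicle; some compounds called inactive have numbers as strong as hits; many hits fall short of the cut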
eIF4H FP inh: inhibitors of RNA binding by human eIF4H. Q15056. eIF4H fluorescence polarization binding assay. inhibition, % at 35 µM. hit rate 0.94% among 290,000. AID 2012;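 active = 50% or more with normal probe brightness, or confirmed in later tests; inconclusive = above 50% with abnormal brightness, or retests that disagree; inactive = below 50% or failed in later tests; about a fifth of its hits are not listed in these tables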;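 also: calls also rest on retests at 20 µM and on dose response follow-up; 0% = protein and probe with vehicle and 100% = probe without protein; strong numbers were not always called active; many hits fall short of the cut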
MT1-MMP act inh: inhibitors of human MT1-MMP activation. GFP/RFP ratio change, % at 20 µM. P50281. hit rate 0.061% among 360,000. HT1080 RFP-PRO-GFP cells, GFP/RFP ratio fluorescence, overnight; percent of plate control window, DMSO zero;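 active = GFP/RFP ratio change of at least 30% with cell ATP level not reduced by more than half and red fluorescence within 50% of control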; also: strong numbers were not always called active
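Test system: HT1080 cells expressing an RFP-PRO-GFP fluorescent reporter construct / Compound dosing: single-point 20 µM compound, 1% DMSO / Schedule: cells overnight before dosing, compound overnight, 37 °C, 5% CO2 / Evaluation: GFP/RFP fluorescence ratio / Control set: DMSO and RFP-L50D-GFP cell wells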
Env fusion inh: blocks HIV Env-driven cell-cell fusion; HeLa-JRFL Env/CEM21 cell fusion, luciferase; inhibition, % at 12.3 µM; hit rate 1.1% among 360,000;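 active = mean replicate inhibition score of at least 50 and every replicate individually at or above 50; inconclusive = only one of the two criteria met; inactive = mean below 50 and not all replicates reaching 50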;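 also: 0% = plate neutral controls and 100% = maraviroc near 300 nM; one replicate is shown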
MT1-MMP act inh RFP: further read-out of MT1-MMP act inh, marked with its call; RFP signal change, %; measured here: RFP expression control read;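 0 = vehicle wells; hits needed this value within 50% of zero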
An asterisk follows results filed as active; i = inactive; u = inconclusive; x = not tested or not shown.

nr	SMILES	CSC inhib	Yeast UUG start	Rce1 inhib	PABP FP inh	eIF4H FP inh	MT1-MMP act inh	MT1-MMP act inh RFP	Env fusion inh
1	CCCN1CCN(CCCNC(=O)CCN2C(=O)COc3ccccc32)CC1	-2	-17	i	-10	3	0	7	-1
2	Clc1ccc(-c2nc(NCCCN3CCOCC3)c3ccccc3n2)cc1	54	-7	i	1	-6	-6	-5	27
3	Cc1ccccc1S(=O)(=O)Cc1ccc(C(=O)NCCN2CCN(Cc3ccccc3)CC2)o1	-3	0	i	7	-5	-3	-1	x
4	Cc1ccc(C(=O)NCc2ccccn2)cc1Cl	-4	x	i	-6	6	4	6	-19
5	Cc1cc(C)n(-c2cc(N3CCN(S(=O)(=O)c4ccc(C)c(C)c4)CC3)ccc2[N+](=O)[O-])n1	-1	-5	i	-13	-7	2	-1	x
6	COC(=O)COc1ccc2c(=O)c(-c3ccccc3OC)coc2c1	11	x	i	43	-3	1	5	-8
7	CC1CCN(S(=O)(=O)c2ccc(C(=O)OC(C)C(=O)N(C)C3CCCCC3)cc2)CC1 (stereo not given)	5	-1	i	x	x	-3	-19	-2
8	CC1CCCN(C(=O)C2CCN(c3nc(-c4ccccc4)nc4c3CCC4)CC2)C1 (stereo not given)	-3	-9	x	0	-2	-3	2	23
9	CC(C)Cn1c(N)c(C(=O)COC(=O)c2ccccc2Cl)c(=O)n(C)c1=O	x	x	i	2	9	2	-13	23
10	Cc1cc(C)cc(N(C(=O)Cc2cccs2)C(C(=O)NC2CCCCC2)c2ccccn2)c1 (stereo not given)	2	0	i	0	2	-25	-18	119*
11	Cc1cc(C(=O)NN)n[nH]1	-12	-7	i	5	14	-2	3	5
12	O=[N+]([O-])c1ccccc1/C=C/C=N/n1c(-c2ccccc2F)n[nH]c1=S	-3	-7	i	-12	-2	4	4	-4
13	COc1ccc(CCC(=O)NCCOc2ccc(C)cc2)cc1	-10	-6	i	6	-17	-4	-1	-4
14	O=C(COc1ccc2c3c(c(=O)oc2c1)CCC3)NCC(O)c1ccccc1 (stereo not given)	-8	5	i	4	-17	1	4	2
15	COc1cccc(CN(C)CC(=O)Nc2cc3oc4ccccc4c3cc2OC)c1	48	x	i	-2	-9	-4	-7	x
16	CC12CC(NC(=O)N1c1cccc(C(=O)Nc3ncn[nH]3)c1)c1ccccc1O2 (stereo not given)	-9	-21	i	2	0	1	-1	x
17	CC(NC(=O)c1ccccc1)c1nnc(SCC(=O)Nc2nnc(C3CC3)s2)n1C (stereo not given)	-7	-5	i	x	x	-5	4	6
18	CCCN(C(=O)CCl)C1=CCCCC1	-11	x	i	-8	16	-1	3	24
19	O=C(CCn1cnc2ccccc2c1=O)Nc1ccc(Cl)c(Cl)c1	x	19	i	-10	-10	-1	4	u
20	CC(C)(C)NC(=O)C(c1ccc(F)cc1)N(Cc1ccco1)C(=O)c1csnn1 (stereo not given)	-3	17	i	4	1	8	-1	4
21	COc1ccccc1N1CCN(S(=O)(=O)CCNC(=O)CCc2ccccc2)CC1	x	8	x	x	x	-4	-7	8
22	COc1ccc(/C=N/NS(=O)(=O)c2ccccc2)cc1OS(=O)(=O)c1ccc(C)cc1	5	0	i	-1	5	-4	-4	x
23	O=C(/C=C/c1ccc(Cl)cc1)N1CCN(c2ccc(Cl)cc2[N+](=O)[O-])CC1	49	-6	i	3	2	6	-1	x
24	O=[N+]([O-])C(=C1NCCN1)C(Cl)=C(Cl)Cl	-2	x	i	10	-8	0	0	1
25	CCCc1cc(=O)oc2c(CN3CCN(C)CC3)c(O)c(Cl)cc12	-14	1	u	19	3	2	4	-32
26	Cc1ccc(CN(C)C(=O)CN2C(=O)NC(c3ccccc3)(c3ccccc3)C2=O)c(C)c1	11	-8	x	x	x	1	-6	x
27	Cc1ccc(S(=O)(=O)N(CCO)Cc2ccccc2)cc1	12	-1	i	-5	-4	-2	-1	-1
28	CCC(=O)Nc1ccc(S(=O)(=O)Nc2cccnc2)cc1	-7	-10	i	-6	-4	6	2	x
29	Cc1cccc(Nc2ncnc3ccccc23)c1	-13	-5	i	21	-1	-2	-6	-97
30	N#CCc1ccc(Oc2ncc(C(F)(F)F)cc2Cl)cc1	9	-20	i	5	-2	2	1	1
31	Cc1nc2ccc(S(=O)(=O)NCC(=O)N(C)Cc3ccco3)cc2s1	-11	-7	i	-10	0	0	-1	x
32	Cc1cc(C)c(NS(=O)(=O)c2ccccc2)c(C)c1	x	-15	x	x	x	0	0	-23
33	COc1ccccc1NC(=O)N(Cc1ccco1)Cc1cc2cc(C)cc(C)c2[nH]c1=O	0	12	i	0	-6	-5	-6	x
34	O=C(Nc1ccccc1Oc1ccsc1C(=O)O)c1ccccc1F	3	-14	i	4	-1	1	1	3
35	COC(=O)CSc1nn(-c2ccc(F)cc2)c(=S)s1	4	x	i	-14	-6	4	4	1
36	COc1ccc(CNC(=S)NC2CCCC2)cc1	17	-35	i	4	6	-6	6	-23
37	Cc1nn(Cc2ccc(Cl)cc2Cl)c(C)c1NC(=O)c1ccc(COc2cc(Cl)ccc2Cl)o1	4	-17	i	0	-6	2	-17	x
38	CCCn1c(SCC(=O)c2c(C)[nH]c(C)c2C(=O)OCC)nc2ccccc21	-4	2	i	33	-1	2	1	18
39	CCN1CC(O)=C(c2nc3ccccc3s2)C1=N	8	-12	i	-8	0	10	3	x
40	COc1cccc(-c2cnc(NCc3cc(Cl)ccc3O)n2C)c1	4	-13	i	1	5	13	7	x
41	CN1c2ccsc2C(O)=C(C(=O)Nc2ccccc2)S1(=O)=O	-10	-13	i	0	-3	3	6	-90
42	CC1=C(C(=O)Nc2cccnc2)C(c2ccncc2)n2nnnc2N1 (stereo not given)	4	2	i	x	x	0	3	-30
43	CCCn1c(N2CCN(Cc3cccc(C)c3)CC2)nc2c1c(=O)[nH]c(=O)n2C	-14	-18	i	9	-14	-2	-6	4
44	CCC1SC2=NC(C)=C(C(=O)OC)C(c3cccs3)N2C1=O (stereo not given)	13	-20	i	19	-7	0	-4	x
45	Cc1c(/C=C/C(=O)c2ccc(O)cc2)cnn1C	0	-51	i	9	-5	1	4	-29
46	CCOc1ccc(CC(=O)NNC(=S)NCCc2ccccc2)cc1	20	x	i	4	12	-3	-1	-7
47	CC(C)Cn1c(N)c(C(=O)COC(=O)C2CC(=O)N(c3ccc4c(c3)OCCO4)C2)c(=O)n(C)c1=O (stereo not given)	22	-5	i	x	x	2	-6	x
48	O=C(O)c1ccccc1CSc1nc2ccccc2o1	-5	-16	i	-4	4	5	6	-70
49	CCCCc1ccc(S(=O)(=O)NC(=O)C2(C)CCN2C(=O)c2cccc(F)c2)cc1 (stereo not given)	x	6	x	x	x	5	7	-9
50	CSc1ccc(CN2CCN(Cc3ccccc3)C(CCO)C2)cc1 (stereo not given)	-8	x	i	3	-2	1	2	-4
51	CCn1cc(C(=O)N(C)CC(OC)OC)c(=O)c2cc(S(=O)(=O)N3CCOCC3)ccc21	-6	-5	i	14	-6	-4	-2	-6
52	CCOC(=O)c1cc(-c2ccncc2)nc2c1c(C)nn2C	-2	x	i	-5	-6	-1	0	-53
53	O=C(COC(=O)c1ccccc1Br)NCc1ccccc1	-33	6	i	3	2	-1	3	-5
54	Cc1cc(C)c(S(C)(=O)=O)c(Sc2ccc(Cl)cc2)n1	-2	-7	i	-5	-10	4	-1	x
55	COc1ccccc1S(=O)(=O)Cc1ccc(C(=O)N2CCN(c3ccccc3)CC2)o1	5	15	i	5	5	10	0	-15
56	COC(=O)Cc1c(C)c2c(O)cc(C)cc2oc1=O	-6	-21	i	-2	0	2	3	x

Remaining list, next part:
nr	SMILES	CSC inhib	Yeast UUG start	Rce1 inhib	PABP FP inh	eIF4H FP inh	MT1-MMP act inh	MT1-MMP act inh RFP	Env fusion inh
57	Cn1c(-c2ccc(Br)cc2)cnc1NCc1cccnc1	-1	-12	i	6	5	-1	5	-72
58	CS(=O)(=O)N(CC(=O)N1CCC(C(N)=O)CC1)c1cc(C(F)(F)F)ccc1Cl	-10	x	i	1	-9	0	1	0
59	Oc1ccc(/C=N/Nc2ncnc3nc[nH]c23)cc1	-13	-28	i	15	-1	-1	0	-11
60	COc1ccc(-c2csc(NC(=O)CSc3nc(C)nc4sc(C(=O)O)c(C)c34)n2)cc1	25	-3	i	44	21	4	-8	3
61	O=C(c1ccc2ccccc2n1)N1CCN(S(=O)(=O)c2ccc(Cl)cc2)CC1	-21	-12	x	x	x	-1	-2	56*
62	C/C(Cc1ccccc1)=N\NC(=O)c1ccc(F)cc1	-16	x	i	1	-1	-1	2	-16
63	COc1ccc2nc(NC(=O)C(NS(=O)(=O)c3cccc4nsnc34)C(C)C)sc2c1 (stereo not given)	8	-5	x	-1	-3	-3	-3	-31
64	CC1CCCC(C)N1C(=O)CSc1nc(N)cc(N)n1 (stereo not given)	-16	x	i	5	-5	1	2	6
65	CN(Cc1ccccc1)C(=O)c1ccccc1NC(=O)C1CC1	-18	x	i	4	-2	-3	3	-11
66	CC(=O)c1ccc(N2Cc3ccccc3/C2=N\C(=O)Nc2ccccc2)cc1	1	-4	i	-15	-7	1	5	6
67	O=C(CSc1nnc(-c2ccc(S(=O)(=O)N3CCCC3)cc2)n1CC1CCCO1)NC1CC1 (stereo not given)	7	14	i	9	3	-1	4	-29
68	CC(=O)Oc1cccc(N2C(=O)c3ccc(C(=O)Nc4cccnc4)cc3C2=O)c1	-4	x	i	-7	4	0	-1	1
69	CC(C)(C)OC(=O)C[C@@H]1C/C=C\C[C@@H](CC(=O)N(CCO)Cc2ccccc2)C(=O)N[C@H](Cc2ccccc2)COC1=O	x	8	x	x	x	-2	-1	-7
70	COc1ccc(C2CC(c3ccccc3)=NN2c2ccc(S(N)(=O)=O)cc2)cc1OC (stereo not given)	-4	x	i	5	2	-5	-9	2
71	Cc1c(C(=O)O)sc(S(=O)(=O)N2CCN(C(=O)CCc3ccccc3)CC2)c1C(=O)O	x	-16	x	x	x	6	2	2
72	COC(=O)C1=C(O)/C(=C\c2ccc(OCC(=O)Nc3ccccc3)cc2)N=C1C	-29	-18	i	-3	6	1	1	-9
73	COc1cccc(N(CC(=O)NCCSc2ccccn2)S(C)(=O)=O)c1	-7	-6	i	-5	2	1	5	-55
74	COc1ccc(NC(=O)Cn2cnc3c(oc4nc5c(cc43)COC(C)(C)C5)c2=O)cc1	-14	-18	i	-3	-7	1	-6	-5
75	Cc1ccccc1S(=O)(=O)NC(=O)C1(C)CCN1C(=O)C1(c2ccccc2)CC1 (stereo not given)	x	0	x	x	x	1	4	-3
76	C[N+](C)(C)CCCCCC(=O)/C=N/O	-9	x	x	-14	-11	-9	-8	2
77	COc1ccccc1C1CCN(C(=O)c2cccs2)CC1	10	0	i	-3	2	4	7	-2
78	COc1cccc(C(=O)Nc2nnc(S(=O)(=O)N3CCCCC3)s2)c1	6	-1	i	-12	5	-1	-4	12
79	CCn1c(=O)c(C(=O)CN2CCOCC2)c(N)n(Cc2ccccc2)c1=O	52	-13	i	-2	-10	-2	3	-3
80	CCOC(=O)c1[nH]c(C)c(CCC(=O)OC)c1C	-11	-8	x	5	-4	5	-1	-26
81	Cc1nc2ccc(S(=O)(=O)N(C)CC(=O)NCCc3ccccc3)cc2s1	-13	-8	i	-4	-6	1	1	7

A portion of the library; the hit share may differ from the screen's.
